ClpP mod = qHTS Assay for Activators of ClpP. ATP-dependent Clp protease proteolytic subunit (Bacillus subtilis (strain 168)), P80244. purified B. subtilis ClpP, FRET peptide cleavage, 20 min. Potency, µM (top dose mostly 57.5 µM), inactives show at the highest dose activity change, negative = active. 340,000 compounds, 1.9% hits; active = well fitted falling curve with a large enough effect; inconclusive = small, poorly fitted or top-dose-only effect; inactive = no such curve, though single readings can be large or run the other way; note: potency is the fitted concentration of half-maximal effect; the source files actives as falling curves though it sought activators and does not explain the sign; nearly all actives have a fitted effect of over 65% in size; many hits overshoot -100%
Target sequence (P80244 whole entry, looked up): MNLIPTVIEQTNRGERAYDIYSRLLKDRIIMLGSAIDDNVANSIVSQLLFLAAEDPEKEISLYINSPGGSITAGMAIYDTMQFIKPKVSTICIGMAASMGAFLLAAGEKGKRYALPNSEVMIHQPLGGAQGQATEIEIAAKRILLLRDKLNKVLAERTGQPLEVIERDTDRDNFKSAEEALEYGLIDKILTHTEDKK
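ClpP 10 microg/mL final, pH 8 Tris/KCl buffer with BSA, glycerol, Tween-20; compound pinned in; FRET-FV substrate; RT 20 min; Ex320/Em430; ΔFRET vs ADEP 5.8 microM, DMSO, no enzyme.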
Sfp PPTase inh = Sfp phosphopantetheinyl transferase inhibition; 310,000 compounds, 3.5% hits; Q9F4F7; AID 1490; Biochemical Sfp PPTase activity, qHTS; Potency, µM, for the others: max response, negative = inhibition, actives largely listed as inhibitors; active = well fitted inhibition curve with a large enough effect; inconclusive = small, poorly fitted or top-dose-only effect, or another doubt; inactive = no such curve, though single readings can be large or run the other way;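 note: the enzyme is Sfp with the accession as filed and its product quenches rhodamine fluorescence; potency is the fitted concentration of half-maximal effect; 0% = enzyme reaction without inhibitor and -100% = no enzyme wells; top concentration of the series not given in the record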
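With Hepes-Na pH 7.6 buffer containing 10 mM MgCl2, Sfp (15 nM) modified BHQ-2-YbbR (12.5 uM) using rhodamine-CoA (5 uM). Two reads 30 minutes apart at 525/598 nm yielded each well's rate.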
gsp antagonist = antagonists of gsp mutant (McCune-Albright syndrome); gsp-mutant cells, cAMP HTRF, 30 min; control for the full effect not named in the record; Potency, µM (top dose mostly 76.9 µM), inactives show at the highest dose activity change, negative = inhibition, hits mostly inhibitors; 340,000 compounds, 0.4% hits; AID 624288; active = falling curve of any shape with a large fitted effect; inconclusive = falling curve, mostly with a smaller effect; inactive = flat or rising curve; cell line not stated here;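 note: intracellular cAMP measured with PDE inhibitor Ro 20-1724 present during compound exposure; potency is the fitted concentration of half-maximal effect; % is set by controls: 0 for no effect and ±100 for the full control effect; nearly all actives have a fitted effect of over 65% in size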
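G418-selected cells were plated in DMEM/10% FBS for 16-24 h at 37C, then treated with compounds plus the PDE inhibitor […] (300 uM solution added) for 30 min at 37C. Intracellular cAMP was measured by HTRF after 30 min lysis at room temperature.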
TRPV1 PAM = potentiators of human vanilloid receptor 1 (TRPV1). Q8NER1. TRPV1-expressing cells, Fluo-8 calcium influx, capsaicin EC20 potentiation; host cell line not named in the record; control for the full effect not named in the record. potentiation, % at 8.33 µM. 320,000 compounds, 0.02% hits; active means potentiation above 80%; inconclusive means 30% to 80%; inactive means below 30%; note: 0% is about no effect
Target sequence (Q8NER1 whole entry, looked up): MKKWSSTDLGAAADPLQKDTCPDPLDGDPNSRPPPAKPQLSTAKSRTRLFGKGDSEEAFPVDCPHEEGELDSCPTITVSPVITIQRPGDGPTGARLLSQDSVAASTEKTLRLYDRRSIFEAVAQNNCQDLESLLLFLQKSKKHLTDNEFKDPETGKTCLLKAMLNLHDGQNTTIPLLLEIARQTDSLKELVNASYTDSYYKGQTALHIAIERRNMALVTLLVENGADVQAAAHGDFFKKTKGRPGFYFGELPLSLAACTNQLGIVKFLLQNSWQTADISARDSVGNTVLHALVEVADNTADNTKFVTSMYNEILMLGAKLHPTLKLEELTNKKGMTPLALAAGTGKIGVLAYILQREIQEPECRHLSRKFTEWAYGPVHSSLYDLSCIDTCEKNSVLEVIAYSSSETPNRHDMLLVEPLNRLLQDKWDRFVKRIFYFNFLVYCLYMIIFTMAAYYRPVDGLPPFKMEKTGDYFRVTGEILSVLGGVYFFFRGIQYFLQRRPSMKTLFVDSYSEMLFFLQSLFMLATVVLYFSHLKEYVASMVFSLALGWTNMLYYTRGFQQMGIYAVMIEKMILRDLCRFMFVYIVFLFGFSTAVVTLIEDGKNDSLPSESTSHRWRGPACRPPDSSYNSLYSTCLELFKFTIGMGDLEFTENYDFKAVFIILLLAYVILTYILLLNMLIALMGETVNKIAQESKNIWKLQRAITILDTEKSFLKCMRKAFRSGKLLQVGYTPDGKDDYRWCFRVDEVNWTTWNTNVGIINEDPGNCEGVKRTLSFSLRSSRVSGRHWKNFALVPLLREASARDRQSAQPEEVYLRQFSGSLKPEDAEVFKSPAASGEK
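TRPV1-expressing cells were cultured overnight at 35.5C and loaded with Fluo-8 calcium dye for 40 to 90 min at room temperature. After a 10 s baseline, compound was added and calcium influx was read kinetically for 3 min (ex 480/em 520 nm).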
Menin-MLL FL inh = inhibitors of human menin-MLL interaction, wild-type MLL peptide. Fluorescence polarization, fluorescein-MLL peptide displacement from menin. FP activity change, % at 61.4 µM. 290,000 tested, under 10 active; inconclusive = falling polarisation curve, or a change in total fluorescence; inactive = total fluorescence flat and polarisation flat or rising; no compound was filed as active; the % refers to the polarisation; negative = inhibition;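 note: % of control where 0% means no effect; inhibitors lower the polarisation; unlabelled MLL peptide was the positive control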
gsp ag = gsp mutant agonism; gsp mutant cells, cAMP HTRF, 30 min; control for the full effect not named in the record; Potency, µM (titrated, usually from 76.9 µM), without a hit: at the highest dose activation (cAMP increase), actives largely listed as activators; 340,000 compounds, 0.13% hits; AID 624287; active = well fitted activation curve with a large enough effect; inconclusive = small, poorly fitted or top-dose-only effect, or another doubt; inactive = no such curve, though single readings can be large or run the other way; cell line not stated here;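 note: phosphodiesterase inhibitor Ro 20-1724 added with compounds to block cAMP breakdown; potency is the fitted concentration of half-maximal effect; nearly all actives have a fitted effect of over 60% in size; about a fifth of the inactives were tested at one dose only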
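Cells stably selected in G418 were plated at 2000/well, grown 16-24 hr, then given compounds in DMSO with the PDE inhibitor […] (300 uM solution added) for 30 min at 37C; cAMP was read by HTRF.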
D2 PAM = potentiates the human D2 dopamine receptor allosterically; P14416; DiscoveRx D2 beta-arrestin cells, luminescence, 90 min; 100% = 57 uM dopamine signal; potentiation, % (concentration not given with the values); 360,000 compounds, 0.23% hits; AID 624464; active = potentiation of 50% or more; inconclusive = 30% to 50%; inactive = 30% or less;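 note: tested on top of an EC20 dose of dopamine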
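D2 cells co-treated with compound plus 50 nM dopamine (EC20) for 90 min at 37 deg C to detect potentiation. Beta-arrestin recruitment was read as enzyme-fragment luminescence after 1 h at ambient temperature. Full response was set by 57 uM dopamine.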
Starred values were filed as active, the others as inactive; ? = inconclusive; . = not tested or not shown; & = joins results of further samples; [ ] = remark or other dose.

Sequence of screens – ClpP mod	Sfp PPTase inh	gsp antagonist	TRPV1 PAM	Menin-MLL FL inh	gsp ag	D2 PAM
- CCN(CC)C1CCN(C(=O)c2cc(COc3ccccc3SC)on2)C1 (stereo not given)
→ -1.3%	18%	5%	-5	0.4	-1%	-27
- CC(=O)Nc1nc2c(s1)C(=O)NCC(C)(C)C2
→ -0.4%	8%	6%	-7	-2.2	-4%[15.4 µM]	-6
- Cc1cnc(C(=O)OC(C)C(=O)Nc2ccc3c(c2)OCCO3)cn1 (stereo not given)
→ -0.3%	3%	4%	10	0.2	-7%[15.4 µM]	-5
- CCCCOc1ccc(N(CC(=O)NC(C)(C)C)C(=O)CCC(=O)Nc2nccs2)cc1
→ 1.6%	23%	-4%	-1	3.0	-18%	-46
- Cc1ccc(S(=O)(=O)NCC(=O)OCC(=O)c2ccc(Cl)s2)cc1
→ -2.5%	.	-7%	.	.	13%[15.4 µM]	-17
- Cc1cc(OCC(=O)NCCN2CCOCC2)c2c(C)c(C)c(=O)oc2c1
→ 3.9%	15%	-16%	-6	1.1	57%	-2
- O=C(c1cccc(S(=O)(=O)N2CCN(c3ccccc3)CC2)c1)N1CCCCCCC1
→ -2.7%	.	-9%	-4	.	-2%	?
- CCOc1ccccc1OCC(=O)Nc1nnc(C)s1
→ 0.3%	-1%	0%	-20	-6.5	?	-5
- CCN1CCN(S(=O)(=O)c2cccs2)CC1
→ 0.3%	5%	2%	-3	2.6	1%	-10
- Cn1c(-c2ccccc2)cc(=NNS(C)(=O)=O)c2cc(S(=O)(=O)O)ccc21
→ -1.2%	.	.	.	.	21%	22
- O=C1CC(c2ccccc2)=NN1c1ccc([N+](=O)[O-])cc1
→ 0.6%	-1%	35µM*	2	?	10%[15.4 µM]	-5
- COc1ccc(OC)c(C(O)CNC(=O)CN)c1 (stereo not given)
→ 0.6%	-1%	2%	6	-2.9	.	-12
- COc1ccccc1NC(=O)C1CCCN1C(=O)Nc1ccc(F)cc1 (stereo not given)
→ .	0%	4%	-2	-7.6	-33%[inhibitor]	-2
- O=C(CSc1nnc(CNC(=O)c2ccc(F)cc2)o1)NCc1ccccc1
→ 0.7%	3%	8%	1	7.3	-3%	-4
- CCCc1cc(-c2nc(-c3ccc(Br)cc3)cs2)ccn1
→ -10%	?	4%	0	2.6	-3%	1
- CC(C)(C)NC(=O)NC(=O)Cn1ccsc1=N
→ -1.0%	6%	4%	-6	1.4	5%	-19
- Cc1cc(C)cc(NC(=S)NCc2ccc3[nH]c4c(c3c2)CCCC4)c1
→ -7.7%	3%	-11%	5	4.0	-36%[inhibitor]	1
- CN(C)CCNC(=O)c1ccc(Cl)c2cc3ccccc3nc12
→ -2.2%	.	?	.	.	?	-32
- COc1ccccc1OCC(=O)Sc1ccc(C)cc1
→ -2.6%	-6%	1%	-7	-1.8	3%	11
- O=c1oc2ccccc2cc1-c1cn2ccccc2n1
→ .	-22%	-2%	-9	1.8	1%	8
- Cn1cc(/C=C2/SC(=O)N(CC(=O)Nc3ccc4c(c3)OCO4)C2=O)c2ccccc21
→ -2.7%	0%	4%	.	2.2	3%	0
- Cc1ccc(N(CC(=O)NC2CC2)S(=O)(=O)c2ccccc2)c(C)c1
→ 2.2%	-21%	9%	-4	.	0%	-7
- Cc1ccc(S(=O)(=O)NCCN=Cc2ccc(N(C)C)cc2)cc1
→ -3.3%	19%	10%	3	2.2	?	24
- COc1ccc(S(=O)(=O)Nc2cc3c4c(c2)CC(=O)N4CCC3)cc1C
→ -11%	.	-9%	0	.	-52%[inhibitor]	-7
- CC(C)n1c(CN2CCN(Cc3ccccc3)CC2)nc2ccccc21
→ -1.6%	6%	1%	.	4.5	-19%	-16
- Cc1cccc(NC(=O)C2CCCN(S(=O)(=O)c3cccc4nsnc34)C2)n1 (stereo not given)
→ 1.5%	13%	-18%	7	-1.0	8%	19
- N/C(=N\OC(=O)c1ccccc1F)c1cccc([N+](=O)[O-])c1
→ -1.5%	9%	4%	-4	-1.1	2%	16
- CC(=O)N(C)c1ccc(OCC(O)COc2ccc(N(C)C(C)=O)cc2)cc1
→ -0.4%	11%	10%	8	2.7	-11%	-3
- O=C(Cn1c(=O)sc2ccccc21)Nc1ccc(O)cc1
→ .	79µM*	2%	3	5.3	11%	-5
- COc1ccc(C(C)=O)cc1Cn1cnc2c(cnn2C)c1=O
→ 0.1%	3%	13%	1	4.3	?	2
- Cn1c(=O)c2cc(S(=O)(=O)NC(C(=O)Nc3cccnc3)c3ccccc3)ccc2n(C)c1=O (stereo not given)
→ -1.4%	-7%	11%	?	-1.4	?	-5
- CC(C)CSc1oc(-c2ccco2)nc1S(=O)(=O)c1ccccc1
→ -8.2%	-6%	-16%	?	11	14%	-9
- CC(=O)COc1ccc(-c2csnn2)cc1
→ .	9%	-3%	-4	0.5	-3%[15.4 µM]	0
- O=C(CCN1C(=O)c2ccccc2S1(=O)=O)Nc1ccccc1F
→ -4.3%	11%	3%	-4	0.7	14%	-5
- CCCCN(CC(=O)Nc1cccc(S(=O)(=O)N2CCCC2)c1)Cc1nc2ccccc2c(=O)[nH]1
→ -3.1%	.	-20%	3	.	?	-17
- O=C1c2ccccc2C(=O)N1CC1=NCCc2ccccc21
→ ?	3%	-15%	7	2.3	-15%	-4
- Cc1occc1C(=O)N1CCCC(CCC(=O)NCc2ccc(F)c(F)c2)C1 (stereo not given)
→ 0.4%	2%	-5%	-6	2.3	-4%[15.4 µM]	-5
- CCN(CC)CCCN(C(=O)c1ccco1)c1nc(-c2ccc(C)cc2)cs1
→ -0.2%	1%	11%	6	-0.2	24%	-31
- Cc1ccc(N(CC(=O)NCc2ccco2)C(=O)CCC(=O)Nc2ccccn2)cc1C
→ -0.8%	-8%	0%[15.4 µM]	3	-1.2	-2%	-37
- Cc1ccccc1C(=O)Nn1cnc2ccccc2c1=O
→ .	16%	12%	-3	-1.8	19%[15.4 µM]	-4
- CN1C(=O)c2oc3ccccc3c(=O)c2C1c1cccnc1 (stereo not given)
→ .	.	-1%	.	.	-6%[15.4 µM]	-7
- CCN(CC)S(=O)(=O)c1ccc(/C=C/C(=O)Nc2ccc(F)c(F)c2F)cc1
→ ?	29%	-3%	-2	3.0	-13%[15.4 µM]	-19
- Cn1c(CCC(=O)O)nc2cc(S(=O)(=O)N3CCCCC3)ccc21
→ -1.5%	.	5%	-11	.	2%	-3
- COc1ccc(C(C(=O)NCc2ccccc2)N(Cc2ccco2)C(=O)c2snc(C(N)=O)c2N)cc1OC (stereo not given)
→ .	5%	?	-2	1.9	14%[15.4 µM]	7
- COc1ccc(-c2cc3ccc(OCc4nn[nH]n4)cc3oc2=O)cc1OC
→ ?	26%	11%	.	4.8	?	-4
- O=C(CCNS(=O)(=O)c1ccc(Br)cc1)NCc1ccco1
→ -7.4%	.	7%	7	.	?	20
- CCOC(=O)N1CCC(NC(=O)C2CCN(S(=O)(=O)c3cccs3)CC2)CC1
→ 0.1%	14%	-12%	-1	3.6	0%	4
- O=C1CCc2cc(S(=O)(=O)N3CCN(c4cccc(C(F)(F)F)c4)CC3)ccc2N1
→ 0.3%	11%	5%	-15	0.7	-31%	2
- CN(c1cccc(NC(=O)CCSc2ccccc2)c1)S(C)(=O)=O
→ -0.8%	-8%	-9%	-18	4.2	3%	-13
- COc1cc(-c2cc(C(=O)Nc3cc(S(=O)(=O)N4CCOCC4)ccc3C)c3ccccc3n2)cc(OC)c1OC
→ ?	.	-8%	-3	.	1%	-11
- CN(CCc1ccccn1)C(=O)Nc1cc(Cl)cc(Cl)c1
→ -1.9%	-4%	-4%	24	4.9	8%[15.4 µM]	-38
- Cc1ccc(C(C)C)c(OCC(=O)NNC(=O)CC2OC(=O)c3ccccc32)c1 (stereo not given)
→ 1.7%	.	-23%	0	.	-23%	-21
- Cc1ccc2c(c1)sc(=NC(=O)c1cccs1)n2C
→ 4.6%	7%	-13%	-6	?	16%	-9
- CCc1ccc(N2C(=O)CC(c3ccc(F)cc3)C3=C2COC3=O)cc1 (stereo not given)
→ .	11%	.	-3	6.4	.	.
- CC(C)(O)[C@H](O)Cc1cc2ccc(=O)oc2cc1O[C@@H]1O[C@H](CO)[C@@H](O)[C@H](O)[C@H]1O
→ 4.1%	.	8%	.	.	.	-1
- CC[C@]12c3[nH]c4ccc(OC)cc4c3CCN1C(=O)C(CC(=O)NCCC1=CCCCC1)C[C@@H]2C(=O)N1CCN(C(=O)C2CC2)CC1 (stereo not given in full)
→ -0.2%	.	-8%	.	.	.	-5
- O=C(Nc1ccc(S(=O)(=O)N2CCOCC2)cc1)c1cccnc1
→ .	7%	4%	-2	2.2	-2%[15.4 µM]	-6
- O=C(CSc1nc2ccccc2o1)N1CCCC1
→ -2.1%	1%	-17%	-6	3.8	-36%[inhibitor]	0
- C[C@H]1[C@H](c2ccccc2)C[C@@H](C(=O)O)C1(C)C
→ -0.3%	.	4%	-10	.	-2%	-3
- COC(=O)CCCC1=CC2=CC(=O)C(C)(OC(=O)c3cccs3)C(=O)C2=CN1C1CC1 (stereo not given)
→ -0.4%	-20%&15%	-2%	14	-25[11.7 µM]	.	13

Other records
Sequence of screens – ClpP mod	Sfp PPTase inh	gsp antagonist	TRPV1 PAM	Menin-MLL FL inh	gsp ag	D2 PAM
- COc1ccc(-c2nc(N)nc(C(F)(F)F)c2-c2cscn2)c(O)c1
→ 1.8%	17%	9%	5	9.5	-31%[inhibitor]	-4
- CC1CCN(S(=O)(=O)c2ccc(NC(=O)CN3CCCCCC3)cc2)CC1
→ .	7%	10%	-5	-3.4	-8%	-8
- Cc1cc(-c2ccc(S(=O)(=O)NCc3ccc(F)cc3)cc2)on1
→ -0.1%	21%	0.79µM*	22	.	-48%	-5
- CC(=O)NCCC1CCN(C(=O)c2cc(COc3ccc(C)nc3)on2)CC1
→ -1.4%	5%	3%	-2	-4.9	-2%	-4
- O=c1c(-c2ccccc2)c(-c2ccccc2)oc2cc(O)cc(O)c12
→ 0.5%	-8%	-3%	28	-1.3	-1%[15.4 µM]	3
- O=C(NCC1CCCO1)c1nc(Cn2ccc([N+](=O)[O-])n2)no1 (stereo not given)
→ .	25%	10%	11	2.5	8%	5

Compound activity deposited in PubChem BioAssay by National Center for Advancing Translational Sciences (NCATS).
